Yeast UUG start = modulators of yeast start codon fidelity, primary screen, whole organism, S. cerevisiae, single point, plate reader | activity score, % at 18.7 µM | AID 602363, 2012 | S. cerevisiae UUG-firefly luciferase reporter, luminescence/redox ratio | hit rate 0.13% among 350,000;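 active = replicate mean at a twofold rise or more, about +100% in these data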;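 note: firefly luciferase made from a UUG start codon reports start codon fidelity; reporter light over untreated wells divided by growth signal over untreated wells; some hits fall short of that in this replicate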
* = called active by the depositor. The list is partial (hit frequency here may not be typical).

smiles,Yeast UUG start
CCC(=O)N1[C@H](CO)[C@H]2c3ccccc3N(C(=O)c3ccccc3F)C[C@H]21,-4
CN(C)C(=O)c1cccc(-c2ccc3c(c2)[C@H]2[C@H](CCN2C(=O)C2CCCCC2)[C@@H](CO)N3)c1,-4
CCCC(=O)Nc1ccc2c(c1)C(=O)N(C)C[C@@H](OC)[C@@H](C)CN(C(=O)c1cnccn1)[C@H](C)CO2,-5
COCC(=O)N1C[C@H]2[C@@H](c3ccccc31)[C@H](CO)N2Cc1ccccc1,-11
C/C=C/c1ccc([C@@H]2[C@@H](CO)N(C(=O)CC)[C@@H]2CNC(=O)CC2CC2)cc1,0
O=C(NC1CCCC1)N1CCCCN2[C@H](C1)[C@H](c1ccc(-c3ccncc3)cc1)[C@@H]2CO,-4
COc1ccc(NC(=O)Nc2ccc3c(c2)[C@@H]2C[C@H](CC(=O)N4CCCCC4)O[C@H](CO)[C@@H]2O3)cc1,10
O=C(c1cnccn1)N1C[C@H]2[C@@H](c3ccccc31)[C@@H](CO)N2Cc1ccccc1Cl,5
C[C@@H]1CN([C@@H](C)CO)C(=O)c2cc(NC(=O)Nc3cccc4ccccc34)ccc2O[C@@H]1CN(C)C(=O)Nc1ccccc1,14
CCc1ccc([C@@H]2CC(=O)[C@@H]3CN(S(=O)(=O)c4ccccc4)[C@H](c4ccc(OC)cc4)C[C@@H]3N2S(=O)(=O)c2ccc(C)cc2)cc1,-4
CCC(=O)N1CCCCN2[C@H](CO)[C@@H](c3ccc(-c4cccnc4)cc3)[C@@H]2C1,-12
Cc1cccc(S(=O)(=O)N2CC[C@@H]3[C@H](CO)Nc4ccc(C#Cc5ccccc5F)cc4[C@@H]32)c1,-16
CC(C)NC(=O)N(C)C[C@@H]1Oc2ccc(NC(=O)c3ccncc3)cc2CC(=O)N([C@@H](C)CO)C[C@@H]1C,-1
O=S(=O)(c1ccc(F)cc1)N1C[C@@H]2[C@H](c3ccccc31)[C@H](CO)N2Cc1ccccc1Cl,0
O=C(Nc1ccccc1)N1CCCCN2[C@H](C1)[C@H](c1ccc(Br)cc1)[C@@H]2CO,-6
OC[C@H]1[C@H](c2ccc(-c3ccccc3)cc2)[C@H]2CN(CCC(F)(F)F)CCCCN21,1
C[C@@H]1CN([C@@H](C)CO)C(=O)c2cc(NC(=O)C3CCCCC3)ccc2O[C@H]1CN(C)Cc1ccc(C(=O)O)cc1,-12
COc1ccccc1NC(=O)N1CC[C@@H]2[C@H]1c1cc(-c3ccccc3)ccc1N(C)[C@@H]2CO,-16
CCC(=O)N1[C@H](CO)[C@@H](c2ccc(-c3ccccc3)cc2)[C@H]1CNC(=O)COC,4
C[C@@H]1CN([C@@H](C)CO)C(=O)c2cc(NS(=O)(=O)c3ccccc3)ccc2O[C@H]1CN(C)Cc1ccncc1,6
C/C=C/c1ccc([C@H]2[C@@H](CO)N(S(C)(=O)=O)[C@@H]2CN(CC)C(C)=O)cc1,1
COc1ccc(CN(C)C[C@@H]2Oc3ccc(NC(=O)Nc4ccc(F)cc4)cc3CC(=O)N([C@H](C)CO)C[C@@H]2C)cc1,4
CO[C@H]1CN(C)C(=O)c2ccc(NS(=O)(=O)c3ccccc3)cc2OC[C@@H](C)NC[C@@H]1C,-9
O=S(=O)(c1ccccc1F)N1CC[C@@H]2[C@H](CO)Nc3ccc(-c4cccc(F)c4)cc3[C@@H]21,-12

Exported field by field: part of the list above.
> C/C=C/c1ccc([C@H]2[C@@H](CO)N(S(C)(=O)=O)[C@@H]2CN(CC)C(C)=O)cc1
- Yeast UUG start: 1
> COc1ccc(CN(C)C[C@@H]2Oc3ccc(NC(=O)Nc4ccc(F)cc4)cc3CC(=O)N([C@H](C)CO)C[C@@H]2C)cc1
- Yeast UUG start: 4
> CO[C@H]1CN(C)C(=O)c2ccc(NS(=O)(=O)c3ccccc3)cc2OC[C@@H](C)NC[C@@H]1C
- Yeast UUG start: -9
> O=S(=O)(c1ccccc1F)N1CC[C@@H]2[C@H](CO)Nc3ccc(-c4cccc(F)c4)cc3[C@@H]21
- Yeast UUG start: -12

(list continues)
smiles,Yeast UUG start
C[C@H](CO)N1C[C@H](C)[C@@H](CN(C)Cc2ccc(Oc3ccccc3)cc2)Oc2ccc(NC(=O)Cc3ccccc3)cc2C1=O,-1
O=C(Nc1ccccc1)N1CCCCN2[C@H](CO)[C@H](c3ccc(C#Cc4ccccc4)cc3)[C@@H]2C1,3
COc1ccc(CN(C)C[C@@H]2Oc3ccc(NS(=O)(=O)c4ccc(C)cc4)cc3CC(=O)N([C@H](C)CO)C[C@H]2C)cc1,13
C[C@H]1CN([C@@H](C)CO)C(=O)c2cc(NC(=O)Nc3ccc(F)cc3)ccc2O[C@H]1CN(C)S(=O)(=O)c1ccccc1,-9
CCC(=O)N1CCCCN2[C@H](C1)[C@@H](c1ccc(-c3ccc(F)cc3)cc1)[C@@H]2CO,-4
CO[C@H]1CN(C)C(=O)c2cc(NS(=O)(=O)CC(F)(F)F)ccc2OC[C@H](C)N(Cc2cccnc2)C[C@@H]1C,-4
O=C(c1cccc(F)c1)N1CCCCN2[C@H](C1)[C@H](c1ccc(-c3ccc(F)cc3)cc1)[C@@H]2CO,-6
COc1ccc(S(=O)(=O)N2CC[C@@H]3[C@H]2c2cc(-c4ccc(C#N)cc4)ccc2N[C@@H]3CO)cc1,-28
O=C(C1CCCCC1)N1C[C@H]2[C@@H](c3ccccc31)[C@@H](CO)N2C(=O)c1ccccc1,-12
C[C@H]1CN([C@@H](C)CO)C(=O)c2cccc(NC(=O)c3nc4ccccc4s3)c2O[C@@H]1CN(C)C(=O)NC1CCCCC1,3
O=C(c1cccc(F)c1)N1CCCCN2[C@H](CO)[C@H](c3ccc(-c4ccncc4)cc3)[C@@H]2C1,4
C[C@@H]1CN([C@@H](C)CO)C(=O)Cc2cc(NS(C)(=O)=O)ccc2O[C@H]1CN(C)C(=O)Nc1ccccc1,-7
CS(=O)(=O)N1CCCCN2[C@H](CO)[C@H](c3ccc(Br)cc3)[C@H]2C1,21
O=C(c1cccnc1)N1CCCCN2[C@@H](CO)[C@H](c3ccc(C#Cc4ccccn4)cc3)[C@@H]2C1,5
O=C(NC1CCCC1)N1CCCCN2[C@@H](CO)[C@H](c3ccc(/C=C/c4ccccc4)cc3)[C@@H]2C1,-9
O=C(Nc1ccccc1)N1CCCCN2[C@@H](CO)[C@H](c3ccc(C4=CCCCC4)cc3)[C@@H]2C1,55
C[C@H](CO)N1C[C@H](C)[C@H](CN(C)C(=O)Nc2cccc(F)c2)OCc2ccccc2-c2ccccc2C1=O,14
COc1cccc(-c2ccc3c(c2)[C@H]2[C@H](CCN2S(=O)(=O)c2ccccc2C)[C@H](CO)N3)c1,-6
CCCNC(=O)[C@@H]1[C@@H](CO)[C@@H]2Cn3c(ccc(-c4ccccc4)c3=O)[C@@H]2N1C(=O)C1CCC1,18
C/C=C/c1ccc([C@H]2[C@@H](CN(C)C(=O)CC3CC3)N(C(=O)C3CC3)[C@H]2CO)cc1,10
O=C(C[C@@H]1CC[C@H]2[C@@H](COC[C@H](O)CN2Cc2ccncc2)O1)NCC1CC1,-6
Cc1cccc(S(=O)(=O)N(C)C[C@H]2OCc3ccccc3-c3c(n(C)c4ccccc34)C(=O)N([C@H](C)CO)C[C@@H]2C)c1,1
O=C(c1ccc2c(c1)OCO2)N1CCCCN2[C@@H](CO)[C@@H](c3ccc(-c4ccccc4)cc3)[C@@H]2C1,12
CC(=O)N1CCCCN2[C@@H](CO)[C@@H](c3ccc(-c4ccc(C)cc4)cc3)[C@@H]2C1,-1
COC(=O)[C@@H]1[C@@H](CO)[C@@H]2Cn3c(ccc(-c4ccc(F)cc4)c3=O)[C@@H]2N1C(=O)C1CC1,-7
COc1ccc(S(=O)(=O)N(C)C[C@@H]2Oc3ccc(NC(=O)Nc4ccc(F)cc4)cc3C(=O)N([C@H](C)CO)C[C@H]2C)cc1,-6
CN1c2ccc(-c3cccc(F)c3)cc2[C@@H]2[C@@H](CCN2C(=O)c2ccc3c(c2)OCO3)[C@@H]1CO,-12
O=S(=O)(c1ccc(F)cc1)N1CC[C@H]2[C@H](CO)Nc3ccc(Br)cc3[C@H]21,-6
CO[C@@H]1CN(C)C(=O)c2ccc(NC(C)=O)cc2OC[C@@H](C)N(C(=O)C2CCCCC2)C[C@H]1C,75
C[C@H]1CN([C@@H](C)CO)C(=O)c2cc(NC(=O)CCN3CCOCC3)ccc2O[C@H]1CN(C)S(=O)(=O)c1ccc(Cl)cc1,5
C[C@H](CO)N1C[C@H](C)[C@H](CN(C)Cc2ccncc2)Oc2ccc(NC(=O)Nc3ccc4c(c3)OCO4)cc2CC1=O,-6
C/C=C/c1ccc([C@H]2[C@H](CO)N3CCCCN(S(=O)(=O)c4cccs4)C[C@@H]23)cc1,6
COc1ccc(S(=O)(=O)Nc2ccc3c(c2)C(=O)N([C@@H](C)CO)C[C@H](C)[C@@H](CN(C)Cc2ccc4c(c2)OCO4)O3)cc1,2
CCCC(=O)Nc1ccc2c(c1)OC[C@H](C)N(C(=O)c1ccccn1)C[C@@H](C)[C@@H](OC)CN(C)C2=O,-4
C[C@@H]1CN([C@H](C)CO)C(=O)c2cc(NC(=O)Cc3ccccc3)ccc2O[C@H]1CN(C)Cc1ccc(Cl)c(Cl)c1,-3
Cc1cccc(S(=O)(=O)N2CCCCN3[C@H](CO)[C@H](c4ccc(C#C[C@H](C)O)cc4)[C@H]3C2)c1,16
CC=Cc1ccc2n(c1=O)C[C@H]1[C@H](CO)[C@@H](C(=O)NCc3ccccc3)N(Cc3cncnc3)[C@@H]21 (mixture of isomers),-3
CN1c2ccc(-c3ccc(C#N)cc3)cc2[C@H]2[C@H](CCN2S(=O)(=O)c2ccc(F)cc2)[C@@H]1CO,-2
O=C(C[C@H]1CC[C@H]2[C@@H](COC[C@H](O)CN2Cc2ccccc2)O1)N[C@H]1CCN(Cc2ccccc2)C1,7
COCC(=O)N1CCCCN2[C@H](CO)[C@H](c3ccc(-c4ccccc4)cc3)[C@@H]2C1,-2
CCCC(O)C#Cc1cnc2c(c1)C(=O)N([C@H](C)CO)C[C@H](C)[C@H](CN(C)S(=O)(=O)c1cn(C)cn1)O2 (stereo partly drawn),29
CCCC(=O)Nc1ccc2c(c1)C(=O)N(C)[C@@H]1CC[C@H](CC(=O)N3CCCCC3)O[C@H]1CO2,10
COCC(=O)Nc1ccc2c(c1)OC[C@@H](C)N(C(=O)c1ccccc1)C[C@@H](C)[C@@H](OC)CN(C)C2=O,9
CO[C@@H]1CN(C)C(=O)c2ccc(NS(=O)(=O)c3cn(C)cn3)cc2OC[C@H](C)N(CC2CC2)C[C@@H]1C,-4
CCCC#Cc1ccc([C@@H]2[C@@H](CO)N3CCCCN(Cc4ccncc4)C[C@H]23)cc1,5
C[C@@H](O)C#Cc1ccc([C@H]2[C@H]3CN(C(=O)c4cccc(F)c4)CCCCN3[C@H]2CO)cc1,5
COc1ccc(C#Cc2ccc([C@H]3[C@H]4CN(C(=O)c5ccncc5)CCCCN4[C@H]3CO)cc2)cc1,7
COc1ccc(S(=O)(=O)N(C)C[C@H]2Oc3ccc(NC(=O)c4ccncc4)cc3C(=O)N([C@H](C)CO)C[C@H]2C)cc1,-3

Look-ups from the entries so far.
`COc1cccc(-c2ccc3c(c2)[C@H]2[C@H](CCN2S(=O)(=O)c2ccccc2C)[C@H](CO)N3)c1` @ Yeast UUG start = -6
`COc1ccc(S(=O)(=O)N2CC[C@@H]3[C@H]2c2cc(-c4ccc(C#N)cc4)ccc2N[C@@H]3CO)cc1` @ Yeast UUG start = -28

More structures follow:
smiles,Yeast UUG start
COc1ccccc1NC(=O)N1CCCCN2[C@H](C1)[C@@H](c1ccc(C#Cc3ccccc3)cc1)[C@@H]2CO,-3
C[C@@H]1CN([C@H](C)CO)C(=O)c2cc(NC(=O)C3CC3)ccc2O[C@H]1CN(C)Cc1ccc(Cl)c(Cl)c1,14
COc1ccc(CNC(=O)C[C@@H]2C[C@H]3c4cc(N(C)C)ccc4O[C@H]3[C@@H](CO)O2)cc1,-7
O=C(Nc1ccc(F)cc1)N1CCCCN2[C@@H](CO)[C@@H](c3ccc(-c4ccncc4)cc3)[C@@H]2C1,-8
C[C@H]1CN([C@@H](C)CO)C(=O)c2cccc(NS(=O)(=O)c3ccccc3)c2O[C@H]1CN(C)Cc1ccc(C(F)(F)F)cc1,0
CCN(C[C@@H]1[C@@H](c2ccccc2)[C@H](CO)N1C(C)=O)C(=O)c1cccc(F)c1,7
O=C(NC[C@@H]1N[C@@H](CO)[C@H]1c1ccc(-c2cccnc2)cc1)c1cccc(F)c1,-12
C[C@@H]1CN([C@H](C)CO)C(=O)c2cc(NC(=O)C3CCCCC3)ccc2O[C@H]1CN(C)Cc1ccc(-c2ccccc2)cc1,13
C[C@@H]1CN([C@@H](C)CO)C(=O)Cc2cc(NC(=O)Cn3cnnn3)ccc2O[C@H]1CN(C)Cc1ccc(-c2ccccc2)cc1,12
O=C(NCc1ccncn1)[C@H]1[C@H](CO)[C@H]2Cn3c(ccc(-c4ccncc4)c3=O)[C@H]2N1CC1CC1,2
COc1cccc(-c2ccc3c(c2)[C@@H]2[C@@H](CCN2C(=O)C2CCC2)[C@H](CO)N3)c1,-10
O=C(C[C@@H]1CC[C@H]2[C@@H](COC[C@H](O)CN2Cc2nccs2)O1)NCc1ccccc1F,9
Cc1noc(C)c1NC(=O)N(C)C[C@H]1Oc2c(NC(=O)C3CCCCC3)cccc2C(=O)N([C@H](C)CO)C[C@H]1C,-35
C[C@@H]1CN([C@@H](C)CO)C(=O)c2cc(NC(=O)CCC(F)(F)F)ccc2O[C@@H]1CN(C)C(=O)Nc1ccc(F)cc1,32

Screening data deposited in PubChem by Broad Institute.
